# PABP polyA inh: blocks human PABP binding to poly(A) RNA; P11940; fluorescence polarization; inhibition, % at 35 µM; 290,000 compounds, 1% hits; AID 2014;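 active means 50% or more with normal probe brightness, or confirmed in later tests; inconclusive means above 50% with abnormal brightness, or retests that disagree; inactive means below 50% or failed in later tests; about a fifth of its hits are not listed in these tables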;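 further: calls also rest on retests at 20 µM and on dose response follow-up; controls were probe without protein and protein plus probe with vehicle; some compounds called inactive have numbers as strong as hits; many hits fall short of the cut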
# Target sequence (P11940 whole entry, looked up): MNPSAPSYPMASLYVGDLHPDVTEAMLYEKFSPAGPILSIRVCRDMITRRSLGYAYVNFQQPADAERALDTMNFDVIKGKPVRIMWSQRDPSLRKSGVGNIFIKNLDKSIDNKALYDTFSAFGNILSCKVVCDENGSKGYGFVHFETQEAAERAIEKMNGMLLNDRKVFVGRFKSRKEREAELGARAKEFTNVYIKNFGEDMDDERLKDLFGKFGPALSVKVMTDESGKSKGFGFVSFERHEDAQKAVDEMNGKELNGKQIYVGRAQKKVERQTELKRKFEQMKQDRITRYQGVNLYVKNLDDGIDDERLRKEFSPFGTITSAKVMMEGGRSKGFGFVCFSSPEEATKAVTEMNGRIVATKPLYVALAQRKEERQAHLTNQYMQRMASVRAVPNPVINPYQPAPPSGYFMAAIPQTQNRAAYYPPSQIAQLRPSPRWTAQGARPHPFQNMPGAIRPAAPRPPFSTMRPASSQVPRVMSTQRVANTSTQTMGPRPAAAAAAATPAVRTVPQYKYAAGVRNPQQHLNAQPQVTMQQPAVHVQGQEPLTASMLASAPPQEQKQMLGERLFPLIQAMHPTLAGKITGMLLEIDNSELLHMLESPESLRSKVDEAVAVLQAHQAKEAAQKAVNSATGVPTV
# CSC inhib: blocks cancer stem cells | cancer stem cell-like cells viability, luminescence | inhibition, % at 7.5 µM | 300,000 compounds, 1.1% hits | AID 2717;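 active means mean at 75% or more and at least half the replicates too; inconclusive means mean and replicates disagree; tested in HMLE shEcad cells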;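 further: 0% = median of negative and 100% = median of positive control wells; the first replicate is given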
# Rce1 inhib: blocks yeast Ras-converting enzyme; Q03530; yeast membranes, quenched prenylated peptide cleavage fluorescence; calls only; 290,000 compounds, 0.27% hits; AID 2563;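 active means fall in fluorescence gain of 50% or more versus controls, with final raw signal at or below 3038400; inconclusive means same 50% fall but final raw signal above 3038400; inactive means fall in fluorescence gain under 50%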;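 further: plate controls were neutral control wells for no effect and wells lacking membranes for full effect; tested at 10 µM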
# Target sequence (Q03530 whole entry, looked up): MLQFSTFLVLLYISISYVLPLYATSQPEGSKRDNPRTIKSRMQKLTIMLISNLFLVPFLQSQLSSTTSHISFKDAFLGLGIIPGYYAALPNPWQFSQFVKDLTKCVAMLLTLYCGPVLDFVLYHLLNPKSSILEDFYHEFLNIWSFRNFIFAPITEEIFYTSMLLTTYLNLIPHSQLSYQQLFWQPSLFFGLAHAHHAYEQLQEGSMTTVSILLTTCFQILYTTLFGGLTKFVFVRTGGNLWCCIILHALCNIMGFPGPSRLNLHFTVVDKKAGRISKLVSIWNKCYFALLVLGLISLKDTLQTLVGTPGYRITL
# MT1-MMP act inh: blocks activation of human MT1-MMP. 360,000 compounds, 0.061% hits. P50281. GFP/RFP ratio change, % at 20 µM. AID 651647. HT1080 RFP-PRO-GFP cells, GFP/RFP ratio fluorescence, overnight; percent of plate control window, DMSO zero;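 active means GFP/RFP ratio change of at least 30% with cell ATP level not reduced by more than half and red fluorescence within 50% of control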; further: strong numbers were not always called active
#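 Test system: HT1080 RFP-PRO-GFP cells; Benchmarks: DMSO and RFP-L50D-GFP cell wells; Timing: cells overnight before dosing, compound overnight, 37 °C, 5% CO2; Compound: one 20 µM compound dose with 1% DMSO; Read-out: GFP/RFP fluorescence ratio.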
# Env fusion inh: HIV envelope-mediated fusion inhibition; HeLa-JRFL Env/CEM21 cell fusion, luciferase; inhibition, % at 12.3 µM; 360,000 compounds, 1.1% hits; AID 651610;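 active means mean replicate inhibition score of at least 50 and every replicate individually at or above 50; inconclusive means only one of the two criteria met; inactive means mean below 50 and not all replicates reaching 50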;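 further: 0% = plate neutral controls and 100% = maraviroc near 300 nM; one replicate is shown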
# eIF4H inh: inhibitors of RNA binding by human eIF4H. eIF4H fluorescence polarization binding assay. AID 2012. 290,000 compounds, 0.94% hits. inhibition, % at 35 µM;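 active means 50% or more with normal probe brightness, or confirmed in later tests; inconclusive means above 50% with abnormal brightness, or retests that disagree; inactive means below 50% or failed in later tests; about a fifth of its hits are not listed in these tables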;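 further: calls also rest on retests at 20 µM and on dose response follow-up; 0% = protein and probe with vehicle and 100% = probe without protein; strong numbers were not always called active; many hits fall short of the cut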
# Yeast UUG start: alters start codon recognition fidelity in yeast; S. cerevisiae UUG-firefly luciferase reporter, luminescence/redox ratio; activity score, % at 18.7 µM; 350,000 compounds, 0.13% hits;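 active means replicate mean at a twofold rise or more, about +100% in these data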;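 further: firefly luciferase made from a UUG start codon reports start codon fidelity; reporter light over untreated wells divided by growth signal over untreated wells; some hits fall short of that in this replicate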
# eIF4H inh retest: recorded beside eIF4H inh, whose call it bears; inhibition, %; compound at 20 µM; confirmation average;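 mean of two retest wells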
# PABP polyA inh retest: recorded beside PABP polyA inh, whose call it bears; inhibition, %; compound at 20 µM; confirmation repeats;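 mean of two retest wells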
# MT1-MMP act inh RFP: further read-out of MT1-MMP act inh, marked with its call; RFP signal change, %; measured here: RFP expression control read;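 0 = vehicle wells; hits needed this value within 50% of zero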
# The depositor's hits bear a star; i = inactive; ? = inconclusive; . = no result given.
# Start of the data: the first six entries as a preview:
SMILES,PABP polyA inh,CSC inhib,Rce1 inhib,MT1-MMP act inh,MT1-MMP act inh RFP,Env fusion inh,eIF4H inh,Yeast UUG start,others
COC(=O)COc1ccc(Oc2cc(C)nc(SC)n2)nn1,-8,5,i,12,6,.,-1,.,
Cc1cc(S(=O)(=O)Cc2noc(-c3c(C)noc3C)n2)c(C)cc1Cl,-6,-6,i,2,-3,3,-1,.,
CCOc1ccccc1C=NNc1ccc([N+](=O)[O-])cn1,.,.,.,-7,3,14,.,-30,
Nc1cccc2c1C(=O)N(Cc1cccc(Cl)c1)C2=O,-4,13,i,-5,2,-2,30,.,
CCn1cc(C(=O)O)c(=O)c2cnc(N3CCN(C(=S)Nc4ccccc4)CC3)nc21,1,-4,i,-5,1,32,3,-30,
O=C(CCNC(=O)c1ccc(Br)cc1)NCC(c1ccco1)N1CCCCC1 (stereo unspecified),.,-11,.,-2,1,.,.,-13,

# Main list, from the first entry:
SMILES,PABP polyA inh,CSC inhib,Rce1 inhib,MT1-MMP act inh,MT1-MMP act inh RFP,Env fusion inh,eIF4H inh,Yeast UUG start,others
COC(=O)COc1ccc(Oc2cc(C)nc(SC)n2)nn1,-8,5,i,12,6,.,-1,.,
Cc1cc(S(=O)(=O)Cc2noc(-c3c(C)noc3C)n2)c(C)cc1Cl,-6,-6,i,2,-3,3,-1,.,
CCOc1ccccc1C=NNc1ccc([N+](=O)[O-])cn1,.,.,.,-7,3,14,.,-30,
Nc1cccc2c1C(=O)N(Cc1cccc(Cl)c1)C2=O,-4,13,i,-5,2,-2,30,.,
CCn1cc(C(=O)O)c(=O)c2cnc(N3CCN(C(=S)Nc4ccccc4)CC3)nc21,1,-4,i,-5,1,32,3,-30,
O=C(CCNC(=O)c1ccc(Br)cc1)NCC(c1ccco1)N1CCCCC1 (stereo unspecified),.,-11,.,-2,1,.,.,-13,
CC1=NN(c2ccc(C)c(C)c2)C(=O)/C1=C\C=C\c1ccc([N+](=O)[O-])o1,7,-14,.,-12,0,-56,92*,.,eIF4H inh retest=66*;PABP polyA inh retest=3
CCN(CC)CC(=O)Nc1c(Br)ccc2c1OCO2,3,-10,i,0,-3,5,-7,.,
O=C(NNc1ccccc1)Nc1ccccc1F,-5,25,i,-2,6,-30,-5,.,
O=S(=O)(Nc1cccc(-c2ccc(N3CCCCCC3)nn2)c1)c1ccc(F)cc1,-4,28,i,7,-2,-53,3,2,
O=C1c2ccsc2SCCN1Cc1ccccc1Cl,-5,5,i,4,3,.,-2,.,
CCCCn1c(N)c(N(CC(C)C)C(=O)c2ccc(C)c(S(=O)(=O)N3CCCCC3)c2)c(=O)[nH]c1=O,.,3,i,-3,-1,3,.,.,
COc1ccc(NC(=O)CN(C)C(=O)CCCc2nc3ccccc3c(=O)[nH]2)cc1,.,-3,.,-1,1,-2,.,-3,
CC(C)CCNC(=O)CN(C(=O)CCC(=O)Nc1nccs1)c1ccc2c(c1)OCCO2,2,-3,i,2,1,8,-14,-23,
Cc1oc(-c2ccc(Cl)cc2)nc1CS(=O)CC(=O)NC1CCCC1 (stereo unspecified),1,-9,i,-1,-1,-1,3,-18,
OC1(c2ccccc2)c2ccccc2-c2ncccc21 (stereo unspecified),0,-10,i,-2,2,-1,-5,.,
O=C(NCc1ccc(Cl)cc1)C1CCN(S(=O)(=O)c2cc([N+](=O)[O-])ccc2Cl)CC1,7,34,.,-3,-11,13,-6,-27,
Cc1cccc(NC(=O)CN2C(=O)NC(Cc3ccccc3)C2=O)c1 (stereo unspecified),-8,8,i,0,4,.,2,2,
CCc1ccc(C(=O)OCC(=O)Nc2cccc(S(=O)(=O)NC3=NCCCCC3)c2)cc1,-3,.,i,1,-3,-7,8,.,
COc1ccc(-n2c(SCC(=O)Nc3nccs3)nnc2-c2ccccc2)cc1,2,-10,i,-2,-2,-7,-3,-19,
O=C1ON=C(c2ccc(Cl)c([N+](=O)[O-])c2)/C1=C/c1cccc([N+](=O)[O-])c1O,.,4,.,-6,-1,-13,.,8,
CCSc1nc2sc3c(c2c(=O)n1-c1ccccc1)CCN(C)C3,6,.,i,-4,-1,-2,44,7,
O=c1cc(-c2ccccc2[N+](=O)[O-])oc2ccccc12,-4,54,i,0,-5,20,-11,.,
CCOC(=O)Nc1ccc2c(c1)nc(CN1CCCCC1)n2C,-6,-4,i,-1,-3,.,2,.,
CC(C)CCn1nnnc1CN1CCN(C(c2ccccc2)c2ccccc2)CC1,4,-7,i,-5,-4,13,-5,-5,
Cc1ccc(C(=O)OCC(=O)NC(=O)c2ccc(C(C)(C)C)cc2)c(O)c1,.,-10,i,2,3,-4,.,-15,
Cc1ccc(/C=N/NC(=O)c2nnn(-c3nonc3N)c2C(C)C)s1,-9,-6,i,2,-2,-4,-1,-8,
O=C(N/C(=C\c1ccccc1)C(=O)N1CCOCC1)c1ccccc1Br,-1,-6,i,-6,-4,0,-7,-5,
CCOc1ccccc1NC(=O)Nc1ccc(OC)nc1,49*,-2,i,-9,-3,6,68,-7,eIF4H inh retest=41;PABP polyA inh retest=80*
O=C(Nc1c(-c2ccccc2)nc2c(Br)cc(Br)cn12)c1ccco1,3,-4,i,-1,2,27,0,-11,
CCOC(=O)/C=C1\SCC(=O)N1CC(O)CN1C(=O)CS/C1=C\C(=O)OCC,75*,-7,i,4,2,.,?,-7,
O=C1C2C(C(=O)N1Cc1cccnc1)C1C=CC2C12CC2 (stereo unspecified),-4,6,i,-2,-3,-9,-6,-7,
CC(=O)c1ccccc1Oc1ncnc(N)c1[N+](=O)[O-],2,-9,i,2,-1,3,2,-15,
CC1CCc2c(nc3ncnn3c2NCCN(C)C)C1 (stereo unspecified),-13,0,i,-5,-2,3,-4,-16,
COc1ccc(C(=O)NCC(=O)Nc2cccc(S(=O)(=O)N3CCCC3)c2)cc1,.,-9,.,-4,-3,.,.,-8,
CCOC(=O)/C=C1\NC2(CCCCC2)Cc2cc(OC)c(OC)cc21,.,-12,i,-5,-1,.,.,.,
Cc1cnc(NC(=O)[C@H](C)N2C(=O)C3CCCCC3C2=O)s1 (stereo partly specified),-4,-14,i,-8,-4,-10,0,.,
CN=C1S/C(=C\c2c(OC)cc(OC)cc2OC)C(=O)N1C,8,-8,i,3,2,-4,6,3,
CC(C)(C)CC(C)(C)NCC(O)COc1c(F)cc(Br)cc1F (stereo unspecified),4,23,i,-4,-4,.,-3,.,
Cc1cccc(NC(=O)Cn2cnc3sc(C)c(S(=O)(=O)N4CCC(C)CC4)c3c2=O)n1,-3,-9,i,-1,-6,-20,-4,-6,
O=C(c1cccs1)N1CCN=C1SCc1ccccc1,10,8,i,4,1,-2,-10,-24,
CC(=O)Nc1ccc(S(=O)(=O)N(C)CC(=O)N/N=C/c2cccs2)cc1,6,2,i,0,1,-4,2,-3,
OCCC1CN(Cc2cccc3nccnc23)CCN1C1CCCC1 (stereo unspecified),2,11,i,1,3,-4,6,-17,
CN(C)S(=O)(=O)c1cccc(NC(=O)CNC2CCCCC2)c1,0,9,i,1,2,0,-4,-8,
O=C(COc1ccc(F)cc1)N(CC1=CCS(=O)(=O)C1)c1ccccc1,5,-8,i,1,6,.,1,-8,
O=C(NCCc1ccccc1)C1Cc2c(-c3ccc4c(c3)OCO4)ccnc2O1 (stereo unspecified),.,.,.,-4,-1,-80,.,-32,
O=C(CC[C@H]1O[C@@H](n2ccc(=O)[nH]c2=O)[C@H](O)[C@@H]1O)N[C@H](Cc1ccccc1)C(=O)NCc1ccco1,.,.,.,2,6,7,.,-9,
CCOc1ccc(/C(O)=C2/C(=O)C(=O)N(c3ncccn3)C2c2ccc(C)cc2)cc1 (stereo unspecified),1,1,i,1,2,-43,-10,14,
O=C(CN1CCN(c2ccc(F)cc2)CC1)c1ccc2c(c1)OCO2,0,-2,i,2,5,.,-10,.,
CC(C)OC(=O)CSc1nnc(-c2ccccn2)n1-c1ccccc1,14,.,i,4,9,.,0,-21,

# 5 entries from above, arranged by molar mass, high to low.
SMILES,PABP polyA inh,CSC inhib,Rce1 inhib,MT1-MMP act inh,MT1-MMP act inh RFP,Env fusion inh,eIF4H inh,Yeast UUG start,others
O=C(CC[C@H]1O[C@@H](n2ccc(=O)[nH]c2=O)[C@H](O)[C@@H]1O)N[C@H](Cc1ccccc1)C(=O)NCc1ccco1,.,.,.,2,6,7,.,-9,
CC(=O)Nc1ccc(S(=O)(=O)N(C)CC(=O)N/N=C/c2cccs2)cc1,6,2,i,0,1,-4,2,-3,
CC(C)OC(=O)CSc1nnc(-c2ccccn2)n1-c1ccccc1,14,.,i,4,9,.,0,-21,
CN(C)S(=O)(=O)c1cccc(NC(=O)CNC2CCCCC2)c1,0,9,i,1,2,0,-4,-8,
O=C(c1cccs1)N1CCN=C1SCc1ccccc1,10,8,i,4,1,-2,-10,-24,

# The results go on:
SMILES,PABP polyA inh,CSC inhib,Rce1 inhib,MT1-MMP act inh,MT1-MMP act inh RFP,Env fusion inh,eIF4H inh,Yeast UUG start,others
O=C(CN1CCN(c2ccccn2)CC1)Nc1cccc(C(F)(F)F)c1,-1,.,i,0,-3,14,-1,-6,
Cc1[nH]c(C(=O)O)c(C#N)c1C(=O)c1ccccc1,1,1,i,0,2,2,-3,-10,
Cc1cccc(NC(=O)Nc2cc(C)cc(C)n2)c1,-8,-11,.,2,7,-93,-2,3,
Cc1cc2cc(CNC(=O)CCC(=O)O)ccc2n1C,2,-16,i,7,5,11,3,.,
COc1ccc(-c2cc(C(=O)NCCCN3CCOCC3)c3ccccc3n2)cc1OC,.,5,i,-5,-3,1,.,.,
COC(=O)Cc1c(C)c2ccc(OC(=O)c3ccccc3)cc2oc1=O,-13,-5,i,4,5,-29,-15,-10,
CCOC(=O)C1CCCN(C(=O)c2ccc(CS(=O)(=O)c3ccc(C)cc3)o2)C1 (stereo unspecified),26,-15,i,-2,8,.,24,-7,
Cc1cc(C)c2cc(C(=O)Nc3ccc(C)c(F)c3)[nH]c2c1,2,4,i,-5,-5,-2,2,-16,
CC(C)(C)c1ccc(C(=O)Nc2nnc(Cc3c[nH]c4ccccc34)s2)cc1,0,96*,i,-4,-4,6,1,-9,
CC(C)(C)C(=O)Nc1cc2c3c(c1)CC(=O)N3CCC2,-7,-1,i,-7,2,4,-9,-10,
COc1ccc(C(=O)Nn2c(SCC(=O)NC3CCCC3)nc3ccccc3c2=O)cc1,3,10,i,4,1,-104,-4,-46,
COC(=O)c1c(NC(=O)CN2C(=O)NC(CCc3ccccc3)C2=O)sc2c1CCCCC2 (stereo unspecified),8,-13,i,5,1,.,-1,-15,
CCOc1ccc(S(=O)(=O)NCCC(=O)NCC(c2ccc(F)cc2)N2CCOCC2)cc1 (stereo unspecified),.,0,i,1,4,4,.,-7,
COc1ccc(OC)c(NC(=O)C(=O)c2cn(CC(=O)N3CCCC3)c3ccccc23)c1,1,6,i,.,.,25,5,0,
CCOc1ccc(-n2nc3ccc(N)cc3n2)cc1,-6,8,i,-2,3,-1,11,-2,
Cc1ccccc1Nc1cc(C)c2c(O)cccc2n1,-1,26,i,0,-6,-10,-1,-23,

# Screens as filed in PubChem.
